gsp agonist – activates gsp, the McCune-Albright syndrome mutation. gsp mutant cells, cAMP HTRF, 30 min; control for the full effect not named in the record. Potency, µM (top dose mostly 76.9 µM), for the others: at the top dose activation (cAMP increase), usual class: activators. 340,000 compounds, 0.13% hits. AID 624287; active = well fitted activation curve with a large enough effect; inconclusive = small, poorly fitted or top-dose-only effect, or another doubt; inactive = no such curve, though single readings can be large or run the other way; cell line not stated here;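 also: phosphodiesterase inhibitor Ro 20-1724 added with compounds to block cAMP breakdown; potency is read from the fitted curve at half-maximal effect; nearly all actives have a fitted effect of over 60% in size; about a fifth of the inactives were tested at one dose only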
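Cells in DMEM/10% FBS with G418 were pretreated with compounds in DMSO plus […] (300 uM stock) for 30 min at 37C. cAMP was measured by HTRF (cAMP-d2 plus anti-cAMP antibody-K) after 30 min at room temperature.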
Sfp PPTase inh – inhibitors of Bacillus subtilis Sfp phosphopantetheinyl transferase | Biochemical Sfp PPTase activity, qHTS | Potency, µM, for inactives: max response, negative = inhibition, actives largely listed as inhibitors | 310,000 compounds, 3.5% hits | AID 1490; active = well fitted inhibition curve with a large enough effect; inconclusive = small, poorly fitted or top-dose-only effect, or another doubt; inactive = no such curve, though single readings can be large or run the other way;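 also: the enzyme is Sfp with the accession as filed and its product quenches rhodamine fluorescence; potency is read from the fitted curve at half-maximal effect; 0% = enzyme reaction without inhibitor and -100% = no enzyme wells; top concentration of the series not given in the record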
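After 15 min at room temperature with compound, 15 nM Sfp received 5 uM rhodamine-CoA plus 12.5 uM BHQ-2-ybbR (50 mM Hepes pH 7.6, 10 mM MgCl2). Rate came from the fluorescence difference over 30 min, ex 525/em 598 nm.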
D2 ag – human D2 receptor agonism in beta-arrestin assay | 360,000 compounds, 0.084% hits | P14416 | activation, % (concentration not given with the values) | AID 624465 | DiscoveRx PathHunter D2 beta-arrestin, luminescence, 90 min; 100% = 57 uM dopamine signal; in the data active = activation above about 40%; inconclusive = about 15% to 40%; inactive = below about 15%; also: the text of the record calls up to 30% inactive
Target sequence (P14416 whole entry, looked up): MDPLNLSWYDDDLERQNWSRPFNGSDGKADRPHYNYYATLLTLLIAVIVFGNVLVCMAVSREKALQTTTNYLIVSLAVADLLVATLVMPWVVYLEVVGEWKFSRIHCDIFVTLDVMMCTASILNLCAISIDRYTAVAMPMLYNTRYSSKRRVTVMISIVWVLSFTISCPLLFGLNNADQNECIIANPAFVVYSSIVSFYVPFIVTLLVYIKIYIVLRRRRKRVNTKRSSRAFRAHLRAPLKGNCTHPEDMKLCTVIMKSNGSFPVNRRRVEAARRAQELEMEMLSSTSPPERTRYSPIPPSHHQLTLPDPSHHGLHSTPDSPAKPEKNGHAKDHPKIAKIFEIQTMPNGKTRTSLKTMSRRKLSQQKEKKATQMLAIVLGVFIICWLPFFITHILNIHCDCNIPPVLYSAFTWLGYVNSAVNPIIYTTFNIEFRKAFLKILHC
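Agonist mode: compounds alone added to overnight-plated D2 PathHunter cells for 90 min at 37 C, with 57 uM final dopamine (EC100) defining full response. Beta-arrestin recruitment detected by chemiluminescent reagent, read after 1 h at ambient temperature.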
PINK1 modulator – changes PINK1 expression. PINK1 immunofluorescence, high-content cytometry, 24 h. 410,000 compounds, 0.2% hits. Potency, µM (series often up to 76.6 µM), without a hit: at the top dose activation (PINK1 increase), most hits filed as activators; active = well fitted activation curve with a large enough effect; inconclusive = small, poorly fitted or top-dose-only effect; inactive = flat fitted curve, though single readings scatter; cell line not stated here;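 also: potency is read from the fitted curve at half-maximal effect; % of control where 0% means no effect; nearly all actives have a fitted effect of over 65% in size; a mitochondrial uncoupler was the plate control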
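PINK1 protein, normally rapidly degraded, was detected by immunofluorescence after 24 hour compound treatment of a stable cell line. Titration data (5 concentrations) came from laser-scanning cytometry, with CCCP-treated wells as controls.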
gsp antagonist – antagonists of gsp mutant (McCune-Albright syndrome); gsp-mutant cells, cAMP HTRF, 30 min; control for the full effect not named in the record; Potency, µM (highest dose often 76.9 µM), without a hit: at the highest dose activity change, negative = inhibition, hits mostly inhibitors; 340,000 compounds, 0.4% hits; AID 624288; active = falling curve of any shape with a large fitted effect; inconclusive = falling curve, mostly with a smaller effect; inactive = flat or rising curve; cell line not stated here;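 also: intracellular cAMP measured with PDE inhibitor Ro 20-1724 present during compound exposure; potency is read from the fitted curve at half-maximal effect; % is scaled to controls: 0 for no effect and ±100 for the full control effect; nearly all actives have a fitted effect of over 65% in size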
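G418-selected cells were plated in DMEM/10% FBS for 16-24 h at 37C, then treated with compounds plus the PDE inhibitor […] (300 uM solution added) for 30 min at 37C. Intracellular cAMP was measured by HTRF after 30 min lysis at room temperature.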
ClpP mod – qHTS Assay for Activators of ClpP; purified B. subtilis ClpP, FRET peptide cleavage, 20 min; Potency, µM (highest dose often 57.5 µM), inactives show top-dose activity change, negative = active; ATP-dependent Clp protease proteolytic subunit (Bacillus subtilis (strain 168)), P80244; AID 651965, 2013; 340,000 compounds, 1.9% hits; active = well fitted falling curve with a large enough effect; inconclusive = small, poorly fitted or top-dose-only effect; inactive = no such curve, though single readings can be large or run the other way; also: potency is read from the fitted curve at half-maximal effect; the source files actives as falling curves though it sought activators and does not explain the sign; nearly all actives have a fitted effect of over 65% in size; many hits overshoot -100%
Target sequence (P80244 whole entry, looked up): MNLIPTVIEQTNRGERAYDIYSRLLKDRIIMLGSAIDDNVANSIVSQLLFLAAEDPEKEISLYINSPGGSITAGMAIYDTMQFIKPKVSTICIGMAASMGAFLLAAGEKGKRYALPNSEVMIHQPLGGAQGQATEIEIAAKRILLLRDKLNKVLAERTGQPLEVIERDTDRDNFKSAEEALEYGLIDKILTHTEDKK
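Purified B. subtilis ClpP, 10 microg/mL final in Tris/HCl pH8 with KCl, BSA, glycerol and Tween-20, cleaved an Abz/nitrotyrosine-quenched decapeptide. Fluorescence (ex 320, em 430) was read at 0 and 20 min at room temperature. Delta was normalized to 5.8 microM ADEP and DMSO/no-enzyme controls.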
Menin-MLL FL inh – inhibitors of human menin-MLL interaction, wild-type MLL peptide. Fluorescence polarization, fluorescein-MLL peptide displacement from menin. FP activity change, % at 61.4 µM. 290,000 tested, under 10 active. AID 1766; inconclusive = falling polarisation curve, or a change in total fluorescence; inactive = total fluorescence flat and polarisation flat or rising; no compound was filed as active; the % refers to the polarisation; negative = inhibition;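 also: % of control where 0% means no effect; inhibitors lower the polarisation; unlabelled MLL peptide was the positive control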
Starred values were filed as active, the others as inactive; ? = inconclusive; nt = no result given; [ ] = another dose, or the depositor's remark.

The line under a structure holds: gsp agonist, Sfp PPTase inh, D2 ag, PINK1 modulator, gsp antagonist, ClpP mod, Menin-MLL FL inh
- CSCC(=O)Nc1nc(-c2ccc3c(c2)OCCO3)cs1
→ ?, -11%, 9.8, -0.6%, -15%, 1.3%, 0.4
- Cc1ccc(N(Cc2ccc([N+](=O)[O-])cc2)C(=O)c2ccco2)cc1
→ -41%[inhibitor], -5%, -1.9, -0.3%, -10%, -1.2%, 0.4
- CN(Cc1ccccc1)c1nc(CN2CCOCC2)nc2scc(-c3ccccc3)c12
→ 11%, -28%, -1.1, -1.4%, 4%, -2.6%, 6.1
- CCN1C(=O)C(=O)N(CC(=O)Nc2cccc(C(F)(F)F)c2)C1=O
→ -7%[15.4 µM], nt, -3.3, 1.6%, 13%, 1.3%, nt
- Cc1cccc(N2CCN(C(=O)CS(=O)(=O)Cc3nc(-c4ccccc4F)oc3C)CC2C)c1 (stereo unspecified)
→ 7%, 1%, -1.7, -0.5%, -18%, -3.3%, -0.3
- CCN(CC(=O)Nc1ccc(NC(C)=O)cc1)C(=O)Cc1ccccc1F
→ -1%, -8%, -2.0, 2.8%, 3%, nt, -0.1
- CC(C)(C)CN1CCC(Oc2cccc(C(=O)NCCCOc3cccnc3)c2)CC1
→ -28%, 19%, -0.1, -1.5%, 9%, -0.4%, nt
- O=C(Nc1cc(C(F)(F)F)ccc1F)C1CCCCC1
→ -2%, 0%, -1.1, 0.0%[38.3 µM], -9%, 0.8%, -4.4
- CN=C(NC(=O)Nc1c(C)cccc1C)NC(=O)Nc1c(C)cccc1C
→ 27%, 11%, -2.8, -0.1%, -4%, nt, -1.3
- COc1ccccc1-c1ccc(SCC(=O)NC2CCCC2)nn1
→ -24%, nt, 0.0, 3.7%, 17%, ?, nt
- CC(=O)Nc1ccc(-c2ccnc3c2CC(C(=O)Nc2cccc(OC(F)(F)F)c2)O3)cc1 (stereo unspecified)
→ nt, nt, 2.2, 2.2%, nt, 4.1%, nt
- CCc1nnc(NC(=O)C23CC4CC(CC(C4)C2)C3)s1
→ -2%, 12%, -5.4, 6.0%, 0%, -1.9%, -0.8
- COc1ccc(OC)c(NC(=O)CSc2nc3cccnc3n2C)c1
→ -13%, 9%, -3.7, 5.3%, -7%, -2.2%, 3.7
- Cn1cccc1/C=C1\SC(=O)N(CC(=O)Nc2ccc(Cl)cc2)C1=O
→ -2%, -10%, -0.4, 11%[38.3 µM], -5%, -1.9%, 8.2
- CCCCC(=O)Nc1cccc(-c2cn3ccsc3n2)c1
→ -24%, 13%, -0.7, 1.8%, -3%, -3.2%, 1.8
- CC(c1ccccc1)C1C(C#N)=C(N)OC2=C1C(=O)CC(C)(C)C2 (stereo unspecified)
→ 19%, 12%, -1.1, nt, 7%, 1.0%, 2.1
- COc1ccccc1C(=O)NC(=S)N1CCc2ccccc21
→ 7%, -7%, -7.8, 3.8%, -8%, -0.7%, 3.1
- COc1ccc2c(c1OC)C(=O)N1C2SC[C@H]1C(=O)NC1CCCC1 (stereo partly specified)
→ 18%, 2%, -2.5, -0.6%, -7%, -27%, 0.8
- CCOc1cc(C2Nc3cccc4cccc(c34)N2)ccc1O
→ -68%[inhibitor], -12%, 0.7, 0.4%, 5%, -2.4%, ?
- O=C(CSc1ncnc2sc3c(c12)CCCC3)c1ccccc1
→ 0%, -3%, -5.1, 3.7%, -20%, 1.7%, 1.6

Reformatted: two of the compounds above
CC(c1ccccc1)C1C(C#N)=C(N)OC2=C1C(=O)CC(C)(C)C2 (stereo unspecified)
  gsp agonist: 19%
  Sfp PPTase inh: 12%
  D2 ag: -1.1
  PINK1 modulator: nt
  gsp antagonist: 7%
  ClpP mod: 1.0%
  Menin-MLL FL inh: 2.1

Cn1cccc1/C=C1\SC(=O)N(CC(=O)Nc2ccc(Cl)cc2)C1=O
  gsp agonist: -2%
  Sfp PPTase inh: -10%
  D2 ag: -0.4
  PINK1 modulator: 11%[38.3 µM]
  gsp antagonist: -5%
  ClpP mod: -1.9%
  Menin-MLL FL inh: 8.2

The list goes on.
The line under a structure holds: gsp agonist, Sfp PPTase inh, D2 ag, PINK1 modulator, gsp antagonist, ClpP mod, Menin-MLL FL inh
- Cc1ccc(-n2c(SCC(=O)NCc3ccco3)nnc2-c2cccnc2)c(C)c1
→ -15%, 6%, -0.8, -3.9%, ?, -4.5%, -1.5
- COc1ccc2c(c1)C(C)CC(C)(C)N2C(=O)CSc1nc2ccccc2s1 (stereo unspecified)
→ -15%, 6%, -4.1, 6.5%, -25%, -1.6%, 1.9
- COc1cc(C)ccc1OCC(=O)NC1CCCCCC1
→ -3%, nt, 0.4, 5.1%, 8%, 1.2%, nt
- O=C(COc1c(Br)cc(Br)cc1Br)N/N=C/c1ccco1
→ 27%, 6%, -7.1, 3.3%, ?, 1.5%, nt
- CN(CCC1CCOCC1)C(=O)C1CCC(=O)N(CCc2ccccc2)C1 (stereo unspecified)
→ ?, 10%, -1.0, -1.7%, -1%, -5.2%, nt
- Cn1c(=O)n(C)c2cc(/C=N/n3cnnc3)ccc21
→ ?, 17%, -2.7, 5.0%, 10%, ?, 0.4
- CC(C)NC(=O)CSc1nnc(-c2ccco2)n1N
→ -50%[inhibitor], 4%, -1.6, 2.0%[38.3 µM], 7%, -1.5%, -0.6
- N/C(Cc1ccc(Cl)cc1Cl)=N\OC(=O)Cc1ccccc1
→ -40%[inhibitor], 12%, 1.2, 0.5%, -5%, -2.6%, 4.7
- COc1ccc(Cl)cc1NC(=O)CN1C(=O)NC2(CCCC2)C1=O
→ -12%[15.4 µM], -1%, 2.1, 1.1%, -10%, nt, 4.4
- O=C(NCN1CCCCC1)c1cccnc1
→ -14%, 6%, -3.4, 2.8%[38.3 µM], 5%, -0.8%, 0.2

Additional compounds
smiles,gsp agonist,Sfp PPTase inh,D2 ag,PINK1 modulator,gsp antagonist,ClpP mod,Menin-MLL FL inh
O=C(CN1C(=O)C2CC=CCC2C1=O)NC1=NCCS1 (stereo unspecified),16%,4%,0.1,0.5%,7%,-4.7%,3.7
CC(C)CNC(=S)N1CCN(C)CC1,-7%,-19%,-4.1,0.4%,-6%,-0.5%,-5.4
CN1CCN(C(=O)C2=C[C@@H](C(C)(C)C)C[C@@H](OCc3ccc(CO)cc3)O2)CC1,nt,2%,-2.1,-0.8%,4%,0.0%,-0.3
COC(=O)c1ccc(NC(=O)CN2CCC(NC(=O)c3ccccc3F)CC2)cc1,-49%[inhibitor],nt,-3.2,-0.1%,nt,2.0%,nt
COc1ccc(Nc2nnc(SCC(=O)N3CCCC3)s2)cc1,?,6%,0.6,2.1%,3%,0.9%,2.7
Clc1ccccc1-c1nc(NC2CCNCC2)c2ccccc2n1,nt,26%,nt,-0.6%,nt,nt,-0.9
NC(=O)COC(=O)c1c2c(nc3ccccc13)CCC2,-1%,6%,-5.1,2.9%,-3%,-17%,-3.6
Cc1ccc(-n2nc(C)c(C3(O)C(=O)N(C(C)C)c4ccccc43)c2N)cc1 (stereo unspecified),-2%,4%,-2.3,0.8%,5%,4.0%,0.6
CCOC(=O)C1(Cc2cccc(OC)c2)CCN(Cc2cnc(SC)nc2)CC1,27%[15.4 µM],-8%,-2.2,1.3%,-10%,nt,-2.2
CNc1cncc(-c2cnn(CC(C)C)c2)n1,nt,nt,-3.2,?,nt,3.9%,nt
O=C(N/N=C/c1cn(-c2cccs2)nc1-c1ccccc1)c1ccccc1Br,11%,1%,-0.8,1.8%,-28%,22µM*,-0.6
CCOc1ccc(CNS(=O)(=O)c2ccc3c(c2)CC(=O)N3C)cc1,3%,10%,3.5,0.7%,-1%,0.9%,nt
COc1cccc(NC(=O)Nc2nc(SC(C)(C)C)ns2)c1,-44%[inhibitor],4%,-1.9,?,40µM*,-0.6%,4.8
O=C1CC(N2CCCCCC2)C(=O)N1c1ccc(F)cc1 (stereo unspecified),-116%[inhibitor],-5%,-5.3,-0.9%,-4%,1.4%,-1.5
CC(C)COc1ccc(-c2nnn(CC(=O)N3CCCC3)n2)cc1,-19%,0%,0.6,2.2%,-21%,-1.0%,3.9
Cc1cccc(NC(=O)c2ccc(NC(=O)c3ccccc3Br)cc2)c1,3%,0%,-1.2,0.6%,?,-4.0%,nt
O=C(Cc1cccc2ccccc12)Nc1nc2ccccc2[nH]1,-33%[inhibitor],5%,-0.9,2.4%[38.3 µM],6%,-8.4%,4.6
CCOc1cccc(C(=O)Nc2cccc(-c3nnc(-c4ccccc4)o3)c2)c1,-4%,?,3.3,nt,-16%,86%,-1.4
CN(C)c1ccc(C(=O)OCC(=O)NC2CCCCCC2)cc1,14%[15.4 µM],-18%,-2.0,0.2%,-20%,-3.1%,0.8
Cc1ccc(NCC(=O)N/N=C/c2ccc(OC(=O)c3ccco3)cc2)cc1,3%,3%,3.7,-2.0%[38.3 µM],-16%,0.8%,5.7
O=C(COC(=O)c1ccco1)NCc1ccccc1Cl,3%,23%,-4.9,1.2%,5%,-1.1%,-5.8
Cc1cc(NC(=O)C2CC(c3ccc(Cl)cc3)=NO2)no1 (stereo unspecified),-3%,8%,-2.0,0.0%,14%,-4.6%,0.6

Records above that bear a hit mark in gsp antagonist.
SMILES	gsp agonist	Sfp PPTase inh	D2 ag	gsp antagonist	Menin-MLL FL inh
COc1cccc(NC(=O)Nc2nc(SC(C)(C)C)ns2)c1	-44%[inhibitor]	4%	-1.9	40µM*	4.8
